SmPrx2 inh – Schistosoma mansoni Prx2 inhibition; S. mansoni Prx2 activity coupled to TGR/GSH (TGR is thioredoxin glutathione reductase), NADPH fluorescence loss, qHTS; some inactives read as strong as hits; Potency, µM; actives 0.07% (n = 65,000); AID 448; active means full or partial inhibition curve with a strong effect at the top dose; inconclusive means weaker partial or single-point curve; inactive means no accepted curve; note: series up to 57 µM; many of its hits are not listed in these tables
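Coupled assay in which S. mansoni TGR passes NADPH reducing equivalents via glutathione to Prx2, which reduces H2O2. Compounds were preincubated 15 min at room temperature with 25 nM TGR/50 nM Prx2 mix. Kinetic NADPH fluorescence loss (ex 365/em 450 nm) was monitored.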
LT uptake inh – inhibitors of anthrax lethal toxin internalization; Cells, anthrax lethal toxin internalization, FRET ratio (460/530); Potency, µM (highest dose often 40 µM), without a hit: at the top dose activity change, negative = inhibition, hits mostly inhibitors; actives 0.67% (n = 70,000); active = well fitted falling ratio curve with the 530 nm signal flat; inconclusive = other ratio curves, or a change in one channel alone; inactive = flat curves in the ratio and both channels; the % refers to the ratio; note: % is set by controls: 0 for no effect and ±100 for the full control effect; nearly all actives have a fitted effect of over 50% in size; tested in ME-180 cells; beta-lactamase reporter
Numbers without * were called inactive; u = inconclusive; x = no result given; & = joins results of further samples; ! = not confirmed by another sample; [ ] = another dose, or the depositor's remark. Potency is the fitted concentration of half-maximal effect.

Below each compound – LT uptake inh	SmPrx2 inh
O=S(=O)(c1cccc(-c2cn3cccnc3n2)c1)N1CCCCCC1
→ u	>57
COC(=O)c1ccc(CSc2nc3c(cnn3-c3ccc(C)c(C)c3)c(=O)[nH]2)o1
→ 8%	>57
CCc1cc(-c2n[nH]c(C)c2-c2nc3ccccc3n2C)c(O)c(CN2CCN(C)CC2)c1O
→ 13%	>57
Nc1c2c(nc3ccccc13)CCCC2
→ 32µM*!	>57&>57&>57
CC(C)N(Cc1nc(-c2ccccc2)no1)C(=O)CSc1ccccc1
→ -28%	>57
COc1ccc(OCCC(=O)Nc2cc(C)on2)cc1
→ 1%	>57
CCN(CC)C(=O)Cn1nnc(-c2ccc(C)o2)n1
→ -5%	>57
CCOC(=O)N1CCN(c2nc(-c3ccc(F)cc3)cs2)CC1
→ -17%	>57
Cc1ccc(/C(O)=C2\C(=O)C(=O)N(c3cc(C)on3)C2c2cccc(Br)c2)cc1 (stereo not given)
→ u	>57
COc1cc2c(cc1OC)C(C(=O)NCc1ccco1)C(c1cccs1)N(C)C2=O (stereo not given)
→ 5%	>57
COc1cc(N2C(=O)NC3CC2(C)Oc2ccc(Br)cc23)cc(OC)c1OC (stereo not given)
→ 7%	>57
CCCC12CN(C(=O)c3ccc(OC)cc3)CC(C)(CN(C(=O)c3ccc(OC)cc3)C1)C2=O
→ -10%	>57
COc1cc(OC)c2c(C)c(Cl)c(=O)oc2c1
→ 6%	>57
CC(=O)OCC1OC(C#Cc2ccc(Cl)cc2)C=CC1OC(C)=O (stereo not given)
→ -7%&2%[8 µM]	x
COC(=O)[C@@]1(Cc2ccc(F)cc2)[C@H]2c3cc(C(=O)N4CCCC4)n(CCc4c[nH]c5cc(F)ccc45)c3C[C@H]2CN1C(=O)c1ccccc1
→ -15%	>57
Cc1onc(-c2ccccc2)c1C(=O)Nc1sc2c(c1C#N)CCC(C)C2 (stereo not given)
→ u	x
Cc1ccc(Cc2nc(-c3cccc(C)c3)no2)cc1
→ 4%	>57
CN[C@]1(C)[C@H]2CC[C@@H](C2)C1(C)C
→ -3%[3.58 µM]	>26
O=C(c1ccc(Br)o1)N1CCN(c2ccc3nnc(-c4ccccc4)n3n2)CC1
→ 0%	>57
Cc1nnc(NC(=O)CCCCCN2C(=O)C3C4C=CC(C4)C3C2=O)s1 (stereo not given)
→ 1%	x
Cc1c(-c2ccccc2)oc2nc3c(c(=O)n(C)c(=O)n3C)n12
→ -12%	>57
Cc1cc2oc(=O)cc(CN3CCN(Cc4ccc5c(c4)OCO5)CC3)c2cc1C
→ -7%	>57
O=S(=O)(c1ccccc1)N1CCC2(CCCN(Cc3cc(C(F)(F)F)cc(C(F)(F)F)c3)C2)CC1
→ u	>57
CSc1nc(C)cc(-n2ccc(=O)[nH]c2=O)n1
→ -9%	>57
O=C(NCc1ccco1)C(c1ccco1)N(CCc1ccccc1)C(=O)Cn1nnc2ccccc21 (stereo not given)
→ -4%	>57
O=C(CN1C(=O)NC2(CCCC2)C1=O)N1CCN(C(=O)c2ccco2)CC1
→ 4%	>57
N#Cc1ccc(CN2CC[C@@]3(CCCNC3)C2)cc1
→ u	>57
CCOc1ccc(NC(=O)Cn2nnc(-c3ccccc3NC(=O)CC)n2)cc1
→ 4%	>57
COc1ccc(Cl)cc1-c1n[nH]c(=S)o1
→ -2%	>57
CCC(=O)Nc1ccc2c(c1)nc(CCN1CCN(C)CC1)n2C
→ u	>57

Sorted by molar mass (low to high): some entries from above.
Below each compound – LT uptake inh	SmPrx2 inh
O=S(=O)(c1cccc(-c2cn3cccnc3n2)c1)N1CCCCCC1
→ u	>57
CC(C)N(Cc1nc(-c2ccccc2)no1)C(=O)CSc1ccccc1
→ -28%	>57
O=S(=O)(c1ccccc1)N1CCC2(CCCN(Cc3cc(C(F)(F)F)cc(C(F)(F)F)c3)C2)CC1
→ u	>57

Further entries follow.
Below each compound – LT uptake inh	SmPrx2 inh
CCn1c(=O)n(CC(=O)NC2CCCC(C)C2C)c(=O)c2ccccc21 (stereo not given)
→ -17%	>57
O=C(O)[C@H](CCc1ccccn1)c1ccccc1
→ -8%[8 µM]	>57
Cc1nc2ccccc2c2oc(C(=O)NCC3CCCO3)cc12 (stereo not given)
→ x	>57
O=C(CSc1nc(-c2ccccc2)cs1)N1CCN(C(=O)c2ccco2)CC1
→ -4%	>57
CCOc1ccc(C2c3c(oc4cc(C)c(C)cc4c3=O)C(=O)N2CCCN2CCOCC2)cc1 (stereo not given)
→ 9%	>57
CCCCOC(=O)C1CCCC(C(=O)OCCCC)N1 (stereo not given)
→ -4%	>57
O=C(c1cccs1)N1CCc2ccccc21
→ -6%	x
CCOc1ccc(Cc2nc(C)c(CC(=O)N3CCOCC3)c(=O)[nH]2)cc1
→ 3%	>57
O=C(O)c1ccc(COc2c(F)c(F)cc(F)c2F)o1
→ 5%	>57
CS(=O)(=O)N(CC(=O)Nc1ccc2c(c1)OCO2)c1ccccc1
→ 0%	>57
O=C(N/N=C\c1ccc2c(c1)CCC2)c1ccccc1O
→ 5%[8 µM]	>57
COc1ccc(-c2nnc(Nc3nc4c(OC)cccc4s3)o2)cc1
→ u	>57
CCc1cccc2c(C#N)cn(CC(=O)N3CCOCC3)c12
→ 1%	>57
COC(=O)c1ccc(Cl)c(NC(=O)CN(c2ccc3c(c2)OCO3)S(C)(=O)=O)c1
→ u	>57
C=CC(=O)OCCOCCOC(=O)C=C
→ u	x
COC(=O)C1=C(C(C)=O)C(c2ccc(C(=O)OC)cc2)n2nnnc2N1 (stereo not given)
→ 5%	>57
CCOc1ccc(OCC)c(NS(=O)(=O)c2ccc3c(c2)n(C)c(=O)c(=O)n3C)c1
→ -4%	>57
CCOc1c2c(nc3ccc(Cl)cc13)CCC2
→ u	>57
CN[C@H](Cc1ccccc1)c1cccc(OC)c1O
→ -4%[8 µM]	>57
Cc1ccc2c(c1)N(CC(=O)NC1CCCc3ccccc31)C(=O)CO2 (stereo not given)
→ -1%	>57
O=C(Nc1ccc(Cl)cn1)c1cc(S(=O)(=O)N2CCCCC2)ccc1Cl
→ 19%	>57
N[C@]1(C(=O)O)CCc2cc(P(=O)(O)O)ccc21
→ -10%	>57
COc1cccc2oc(-c3ccc(O)cc3)cc(=O)c12
→ u	>57
COc1ccccc1N1CCN(C(=O)CSc2nnc3n2C(C)(C)Cc2ccccc2-3)CC1
→ u	>57
CCN(CC)c1ccc(CN(C(=O)c2cc(OC)c(OC)c(OC)c2)C2CCS(=O)(=O)C2)cc1 (stereo not given)
→ u	>57
CCN(CC)CCn1c(=S)[nH]c2ccccc2c1=O
→ -29%	x
COc1ccccc1N1CCN(C(=O)c2ccoc2C)CC1
→ -12%	>57
O=c1cc(N2CCN(c3ccccc3)CC2)[nH]c(=O)n1-c1ccccc1Cl
→ -7%	>57
C1=C(c2cccc3ccccc23)N2CCN=C2S1
→ u	>57
CC(=O)Nc1ccn(-c2ccccc2)n1
→ 3%	>57

18 entries already listed, sorted by number of heavy atoms, low to high.
Below each compound – LT uptake inh	SmPrx2 inh
Nc1c2c(nc3ccccc13)CCCC2
→ 32µM*!	>57&>57&>57
O=C(c1cccs1)N1CCc2ccccc21
→ -6%	x
COc1cc(OC)c2c(C)c(Cl)c(=O)oc2c1
→ 6%	>57
O=C(O)[C@H](CCc1ccccn1)c1ccccc1
→ -8%[8 µM]	>57
N#Cc1ccc(CN2CC[C@@]3(CCCNC3)C2)cc1
→ u	>57
Cc1ccc(Cc2nc(-c3cccc(C)c3)no2)cc1
→ 4%	>57
O=C(N/N=C\c1ccc2c(c1)CCC2)c1ccccc1O
→ 5%[8 µM]	>57
CCc1cccc2c(C#N)cn(CC(=O)N3CCOCC3)c12
→ 1%	>57
CCOC(=O)N1CCN(c2nc(-c3ccc(F)cc3)cs2)CC1
→ -17%	>57
O=S(=O)(c1cccc(-c2cn3cccnc3n2)c1)N1CCCCCC1
→ u	>57
CCn1c(=O)n(CC(=O)NC2CCCC(C)C2C)c(=O)c2ccccc21 (stereo not given)
→ -17%	>57
O=C(CN1C(=O)NC2(CCCC2)C1=O)N1CCN(C(=O)c2ccco2)CC1
→ 4%	>57
COc1cc(N2C(=O)NC3CC2(C)Oc2ccc(Br)cc23)cc(OC)c1OC (stereo not given)
→ 7%	>57
COC(=O)c1ccc(Cl)c(NC(=O)CN(c2ccc3c(c2)OCO3)S(C)(=O)=O)c1
→ u	>57
Cc1cc2oc(=O)cc(CN3CCN(Cc4ccc5c(c4)OCO5)CC3)c2cc1C
→ -7%	>57
COc1ccccc1N1CCN(C(=O)CSc2nnc3n2C(C)(C)Cc2ccccc2-3)CC1
→ u	>57
CCCC12CN(C(=O)c3ccc(OC)cc3)CC(C)(CN(C(=O)c3ccc(OC)cc3)C1)C2=O
→ -10%	>57
O=C(NCc1ccco1)C(c1ccco1)N(CCc1ccccc1)C(=O)Cn1nnc2ccccc21 (stereo not given)
→ -4%	>57

Next section
Below each compound – LT uptake inh	SmPrx2 inh
Fc1ccc(NCc2cccnc2)cc1
→ -1%	>57
Clc1cccc2sc(N3CCOCC3)nc12
→ -4%	>57
Clc1ccccc1-c1nccc(NCc2ccccc2)n1
→ u	>57
COc1cccc(NC(=O)CN(C)S(=O)(=O)c2ccc(C)cc2)c1
→ 2%	>57
CCOC(=O)C1CCN(c2c(N3CCN(Cc4ccccc4)CC3)c(=O)c2=O)CC1
→ 14%	>57
CCN(c1ccc2c(c1)OCO2)S(=O)(=O)c1cc(Br)cc2c1N(C(=O)C1CC1)CC2
→ -20%	>57
COc1cccc(Nc2ncc3nc(-c4ccc(Cl)cc4)c(=O)n(C[C@H]4CCCO4)c3n2)c1
→ -4%	>57
CN(C)c1ccc(C(=O)C(O)c2ccc(C(C)(C)C)cc2)cc1 (stereo not given)
→ -10%	x
COc1ccc(-c2nc(-c3cccc(C(F)(F)F)c3)no2)cc1OC
→ u	x
CC(C)c1ccc(-c2nc3c([nH]2)c(=O)n(C)c(=O)n3C)cc1
→ 14%	>57
CC1=C(C(=O)OCc2ccccc2)C(c2ccc(N3CCOCC3)cc2)NC(=O)N1 (stereo not given)
→ -11%	>57
C=COCC1CN2C(CCC(C)C2c2ccc(Br)cc2)C(=O)O1 (stereo not given)
→ -6%&0%[8 µM]	x
CN1CCN(S(=O)(=O)c2ccc(-c3ccc(Cl)cc3)cc2)CC1
→ 6%	>57
CS(=O)(=O)c1ccc(N2CCN(C3CC(=O)NC3=O)CC2)cc1 (stereo not given)
→ -2%	>57
CCc1ccc2oc(=O)cc(CN3CCN(CCO)CC3)c2c1
→ 0%	>57
CN(C)CCNc1c2c(c(C#N)c3nc4ccccc4n13)CCCC2
→ -11%	>57
CCN(CC)C(=O)CN1CCN(c2ccccc2F)CC1
→ -13%	>57
Cc1oc2cc3c(C(=O)N4CCCCC4)c(C)oc3cc2c1C(=O)N1CCCCC1
→ u	>57
CCCCn1c(C(C)NC(=O)CC)nc2ccccc21 (stereo not given)
→ 4%	>57
O=S(=O)(c1ccccc1)N1CCN(c2nnnn2-c2ccccc2)CC1
→ 11%	>57
CCOC(=O)Nc1cccc(OCC(=O)Nc2ccc(OC)cc2OC)c1
→ -4%	>57
CCOCCCN(C(=O)Nc1ccc(CC)cc1)C1CCN(C(C)=O)CC1
→ -8%	>57
COc1ccc(S(=O)(=O)Nc2cc(C)on2)cc1OC
→ 2%	>57
CC(=O)c1cccc(-n2nnnc2SCC(=O)Nc2ccccc2N2CCCCC2)c1
→ u	>57
COc1ccc2nc(N3CCCC3)c(C#N)cc2c1
→ u	>57
CCCOc1ccc2oc(=O)c3c(c2c1)CCCN3C(=O)CN1CCc2ccccc2C1
→ u	>57
NCCn1c(=O)c(CCc2ccccc2)nc2cncnc21
→ -4%	>57
CCCNC(=O)N1CCN(S(=O)(=O)c2ccc(C)cc2)CC1
→ -5%	>57
c1cncc(-c2nc(N3CCNCC3)c3ccccc3n2)c1
→ 0%	>57
CCCCn1nnnc1SCC(=O)Nc1ccc(F)cc1
→ -21%	>57
COC(=O)C1CCC(C)(C(=O)Nc2ccccc2)C1(C)C (stereo not given)
→ -7%	>57
CCCCOC(=O)C1=C(C)NC2(O)c3ccccc3C(=O)C12O (stereo not given)
→ 8%	>57
COc1cccc(OC)c1C(=O)n1nc(C)cc1C
→ 11%	>57
c1ccc2c(Oc3ccc4c(c3)OCO4)nncc2c1
→ -25%	>57
CCCc1cc(=O)n2[nH]c(NCc3c(F)cccc3Cl)nc2n1
→ u	>57
COc1cccc(-c2nc(CS(=O)CC(=O)N3CCC4(CC3)OCCO4)c(C)o2)c1 (stereo not given)
→ 7%	>57
CCOC(=O)c1ccc(NS(=O)(=O)c2ccc3c(c2)CCCN3C(C)=O)cc1
→ -6%	>57
Cc1nn(C)cc1CNC(=O)CCC(=O)O
→ 8%	>57
O=C(O)COc1ccc(OCCNC[C@@H](O)COc2ccccc2)cc1
→ u	>57

Screening results: PubChem, National Center for Advancing Translational Sciences (NCATS)

A portion of the library; count on the stated rates, not on these rows.
